Compound activity as filed in PubChem BioAssay.
gsp antagonist: gsp mutant antagonism | Potency, µM (highest dose often 76.9 µM), without a hit: at the highest dose activity change, negative = inhibition, usual class: inhibitors | gsp-mutant cells, cAMP HTRF, 30 min; control for the full effect not named in the record | 340,000 compounds, 0.4% hits; active = falling curve of any shape with a large fitted effect; inconclusive = falling curve, mostly with a smaller effect; inactive = flat or rising curve; cell line not stated here;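 note: intracellular cAMP measured with PDE inhibitor Ro 20-1724 present during compound exposure; potency is the fitted concentration of half-maximal effect; % is set by controls: 0 for no effect and ±100 for the full control effect; nearly all actives have a fitted effect of over 65% in size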
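Cells, 2000/well, grown 16–24 h in DMEM 10% FBS with 0.5 mg/ml G418, then compounds plus […] (300 uM addition stock), 30 min at 37C. cAMP read by HTRF (cAMP-d2 and anti-cAMP antibody-K in lysis buffer) after 30 min RT.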
ClpP mod: qHTS Assay for Activators of ClpP; ATP-dependent Clp protease proteolytic subunit (Bacillus subtilis (strain 168)), P80244; purified B. subtilis ClpP, FRET peptide cleavage, 20 min; Potency, µM (series often up to 57.5 µM), for inactives: at the highest dose activity change, negative = active; 340,000 compounds, 1.9% hits; AID 651965, 2013; active = well fitted falling curve with a large enough effect; inconclusive = small, poorly fitted or top-dose-only effect; inactive = no such curve, though single readings can be large or run the other way; note: potency is the fitted concentration of half-maximal effect; the source files actives as falling curves though it sought activators and does not explain the sign; nearly all actives have a fitted effect of over 65% in size; many hits overshoot -100%
Target sequence (P80244 whole entry, looked up): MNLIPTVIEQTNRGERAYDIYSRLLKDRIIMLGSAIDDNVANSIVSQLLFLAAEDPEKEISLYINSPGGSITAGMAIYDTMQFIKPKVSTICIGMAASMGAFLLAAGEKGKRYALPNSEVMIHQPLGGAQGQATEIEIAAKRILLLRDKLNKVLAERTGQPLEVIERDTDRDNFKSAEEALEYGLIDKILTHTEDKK
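FRET quenching reversal measured ClpP activation: 10 microg/mL B. subtilis ClpP at pH 8 with the FRET-FV decapeptide, read at 430 nm after 320 nm excitation. The 20-min minus 0-min signal was scaled between DMSO/no-enzyme wells and ADEP (5.8 microM final).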
gsp ag: gsp mutant agonism; gsp mutant cells, cAMP HTRF, 30 min; control for the full effect not named in the record; Potency, µM (titrated, usually from 76.9 µM), inactives show at the highest dose activation (cAMP increase), usual class: activators; 340,000 compounds, 0.13% hits; AID 624287; active = well fitted activation curve with a large enough effect; inconclusive = small, poorly fitted or top-dose-only effect, or another doubt; inactive = no such curve, though single readings can be large or run the other way; cell line not stated here;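 note: phosphodiesterase inhibitor Ro 20-1724 added with compounds to block cAMP breakdown; potency is the fitted concentration of half-maximal effect; nearly all actives have a fitted effect of over 60% in size; about a fifth of the inactives were tested at one dose only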
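Cells stably selected in G418 were plated at 2000/well, grown 16-24 hr, then given compounds in DMSO with the PDE inhibitor […] (300 uM solution added) for 30 min at 37C; cAMP was read by HTRF.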
Menin MLL FP FL: inhibitors of human menin-MLL interaction, wild-type MLL peptide | Fluorescence polarization, fluorescein-MLL peptide displacement from menin | FP activity change, % at 61.4 µM | 290,000 tested, under 10 active; inconclusive = falling polarisation curve, or a change in total fluorescence; inactive = total fluorescence flat and polarisation flat or rising; no compound was filed as active; the % refers to the polarisation; negative = inhibition;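 note: % of control where 0% means no effect; inhibitors lower the polarisation; unlabelled MLL peptide was the positive control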
TRPV1 potentiator: human TRPV1 potentiation; AID 540277; 320,000 compounds, 0.02% hits; Q8NER1; potentiation, % at 8.33 µM; TRPV1-expressing cells, Fluo-8 calcium influx, capsaicin EC20 potentiation; host cell line not named in the record; control for the full effect not named in the record; active means potentiation above 80%; inconclusive means 30% to 80%; inactive means below 30%; note: 0% is about no effect
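TRPV1-expressing cells were cultured overnight at 35.5C and loaded with Fluo-8 calcium dye for 40 to 90 min at room temperature. After a 10 s baseline, compound was added and calcium influx was read kinetically for 3 min (ex 480/em 520 nm).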
Sfp inh: blocks B. subtilis Sfp PPTase activity; Potency, µM, for inactives: max response, negative = inhibition, actives largely listed as inhibitors; Q9F4F7; Biochemical Sfp PPTase activity, qHTS; 310,000 compounds, 3.5% hits; AID 1490; active = well fitted inhibition curve with a large enough effect; inconclusive = small, poorly fitted or top-dose-only effect, or another doubt; inactive = no such curve, though single readings can be large or run the other way;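 note: the enzyme is Sfp with the accession as filed and its product quenches rhodamine fluorescence; potency is the fitted concentration of half-maximal effect; 0% = enzyme reaction without inhibitor and -100% = no enzyme wells; top concentration of the series not given in the record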
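Step 1, compound plus 15 nM Sfp-PPTase, 15 min, room temperature. Step 2, add rhodamine-CoA (5 uM) and BHQ-2-YbbR (12.5 uM). Step 3, read 525/598 nm fluorescence at 0 and 30 min.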
TRPML1 inh: blocks the human TRPML1 channel; Q9GZU1; TRPML1-inducible cells, Ca2+ dye fluorescence, FDSS; active compounds read low; inhibition of EC80 agonist-evoked calcium signal; activity change, negative = inhibition, % (no concentration beside the values); 390,000 compounds, 0.02% hits; in the data active means activity change below about -50%; inconclusive means about -30% to -50%; inactive means above about -30%;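 note: stimulus is agonist 54-4 at its EC80 concentration; % is set by controls: 0 for no effect and ±100 for the full control effect; compound concentration not given in the record; the text of the record puts the active cut at -80%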
Target sequence (Q9GZU1 whole entry, looked up): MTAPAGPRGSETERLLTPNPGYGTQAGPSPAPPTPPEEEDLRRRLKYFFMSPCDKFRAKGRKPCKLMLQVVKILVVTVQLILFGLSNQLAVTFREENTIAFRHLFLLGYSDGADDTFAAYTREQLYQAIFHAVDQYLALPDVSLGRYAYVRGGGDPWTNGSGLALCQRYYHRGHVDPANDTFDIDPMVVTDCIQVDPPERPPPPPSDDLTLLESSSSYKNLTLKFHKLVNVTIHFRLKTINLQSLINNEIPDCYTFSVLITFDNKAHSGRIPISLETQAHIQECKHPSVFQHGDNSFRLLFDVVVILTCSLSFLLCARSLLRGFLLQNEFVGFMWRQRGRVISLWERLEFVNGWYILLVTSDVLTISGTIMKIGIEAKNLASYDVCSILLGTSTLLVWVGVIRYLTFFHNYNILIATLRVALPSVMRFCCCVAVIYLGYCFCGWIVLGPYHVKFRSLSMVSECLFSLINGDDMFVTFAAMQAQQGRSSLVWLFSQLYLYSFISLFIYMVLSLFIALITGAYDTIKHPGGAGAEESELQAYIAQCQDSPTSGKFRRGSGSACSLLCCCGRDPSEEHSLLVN
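Tet-induced TRPML1-DL cells loaded with Ca8 no-wash calcium dye were read kinetically on FDSS. Compound addition was followed by EC80 agonist 54-4 (4 uM final); inhibition was read over 110 s.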
Numbers without * were called inactive; u = inconclusive; x = not tested or not shown; [ ] = dose if it differs, or a comment.

SMILES | gsp antagonist | ClpP mod | gsp ag | Menin MLL FP FL | TRPV1 potentiator | Sfp inh | TRPML1 inh
COc1ccc(-c2c(C#Cc3ccsc3)c3cc(-c4ccc(C(N)=O)cc4)ccc3n2C)cc1 | -5.1% | 3.3% | 14.7% | x | x | x | 5.6
COc1ccc(CCNC(=O)c2c(C)noc2C)cc1 | 8.6% | -1.5% | -0.1% | 3.1 | 3.9 | 5.3% | 33.5
Cc1ccc(Nc2nc(CSc3nnc(-c4ccc(F)cc4)n3C)cs2)cc1 | u | 1.1% | -2.9% | 4.5 | -4.8 | -23.5% | 23.4
O=C1CC(C(=O)N2CCN(c3ccccn3)CC2)CN1Cc1ccccc1Cl (centres undefined) | 5.6% | 31.6µM* | u | x | -2.8 | x | -12.4
COc1cccc(NC(=O)c2cnc(SCC(=O)NCc3ccc4c(c3)OCO4)n(C)c2=O)c1 | -21.5% | 119.6% | 13.5% | x | -1.1 | x | 10.1
CC(=O)c1sc(-c2ccc(F)cc2)cc1NS(=O)(=O)c1ccc(C)cc1 | 4.2% | -0.5% | 4.9%[15.4 µM] | 4.2 | 9.8 | 3.1% | -7.2
N#CCCN(Cc1ccccc1)C(=O)Nc1ccc2c(c1)CCO2 | 6.4% | -0.8% | -1.3% | -1.4 | 4.1 | 1.3% | 5.2
Cc1nnc(N/N=C/c2c[nH]c3ccccc23)[nH]c1=O | -13.8% | -0.8% | u | 0.3 | u | -3.8% | -16.2
O=C(c1ccncc1)c1nccn1-c1ccccn1 | 1.7% | -0.8% | 24.7% | -2.1 | -3.2 | 11.4% | -12.1
Cc1cccc(S(=O)(=O)N2CN(CC3CCCO3)c3nc4ccccc4nc32)c1 (centres undefined) | -17.2% | -16.7% | u | -2.4 | -17.1 | 1.4% | 1.3
COc1ccccc1NC(=O)C(=O)N(c1cccnc1)C(C(=O)NC(C)(C)C)c1ccccc1F (centres undefined) | 0.6% | 0.9% | u | -1.9 | 1.4 | 15.4% | 25.4
COC(=O)CCN1CCC2CC1c1cc(N3CCCCC3)ccc12 (centres undefined) | x | -6.7% | -3.8% | x | x | x | 0.2
COC(=O)[C@H](CC(C)C)NC(=O)NCCC1=CCCCC1 | 11.6% | x | -2.3%[15.4 µM] | 4.7 | -26.2 | 6.4% | 7.0
CCc1nn(CCCC(=O)N(C)Cc2ccccc2)c(=O)c2cc3occc3n12 | 0.1% | -3.8% | 3.3% | -0.6 | 23.6 | 3.1% | -15.0
Cc1c(C(=O)c2ccccc2)c2ccccn2c1CCc1ccccn1 | -19.2% | -0.5% | 26.7% | u | -20.5 | -47.6% | -5.2
O=C(Nc1nonc1-c1ccc(Cl)cc1)c1ccco1 | -3.8% | -0.5% | u | 0.3 | 8.5 | 8.9% | 29.6
CN1C(=O)Cc2cc(S(=O)(=O)NCc3cccs3)ccc21 | 3.0% | x | 11.8%[15.4 µM] | 0.1 | -6.9 | 1.2% | -14.6
O=C(CN1C(=O)NC2(CCCCC2)C1=O)NCCc1c[nH]c2ccccc12 | 11.0% | 0.0% | 3.0% | x | -1.7 | 13.0% | -3.0
Cc1noc(C)c1N=Nc1ccc(Br)cc1C(=O)O | 5.1% | 0.5% | u | -2.5 | -3.0 | 5.8% | 52.1
Cc1ccc2[nH]c3c(c2c1)CCCC3NCCO (centres undefined) | 3.0% | -0.4% | 0.4%[15.4 µM] | -3.5 | 7.6 | -8.8% | 12.8
CC(NS(=O)(=O)c1ccc(OCC(=O)Nc2cccc([N+](=O)[O-])c2)cc1)c1ccccc1 (centres undefined) | u | x | 3.2%[15.4 µM] | x | 7.7 | 24.5% | 3.4
COC(=O)CSc1nnc(CSc2nc(C)cc(C)n2)o1 | -2.0% | x | -16.1%[15.4 µM] | 4.6 | 0.4 | 4.6% | 9.1
O=C(COC(=O)/C=C/c1ccc(Cl)cc1)NC1CCCCCC1 | 17.0% | -0.9% | -20.4% | x | -11.4 | x | 12.9
O=C(COC(=O)c1ccc(Cl)nc1)Nc1ccc2c(c1)OCO2 | 7.9% | -2.6% | u | -1.3 | 4.9 | 14.8% | 28.9
Cc1cc(C)c(S(=O)(=O)n2ccc3ccccc32)c(C)c1 | -15.4% | -2.2% | 15.1%[15.4 µM] | -26.9 | 7.3 | -5.5% | 36.5

Other records
SMILES | gsp antagonist | ClpP mod | gsp ag | Menin MLL FP FL | TRPV1 potentiator | Sfp inh | TRPML1 inh
CCc1ccc2c(c1)C(c1cccs1)=NNC(c1cccnc1)=N2 | -11.2% | 1.4% | 0.0% | 0.5 | -16.0 | 5.8% | -8.3
Cc1ccc(NC(=O)COC(=O)CCC(=O)c2ccc(C(C)(C)C)cc2)c([N+](=O)[O-])c1 | 6.1% | -1.8% | u | 7.4 | 17.5 | -7.9% | 13.2
O=C(O)C1=C[C@@H](c2ccccc2)C[C@@H](OCCCCO)O1 | 3.8% | 2.1% | x | x | x | x | 18.3
COc1cc(COc2ccc(-c3nnco3)cc2)ccc1OC(F)F | 12.9% | x | -13.8%[15.4 µM] | 0.1 | -0.6 | 14.3% | 16.8
CN(C)S(=O)(=O)c1cccc(NC(=O)Cc2ccc(-c3ccccc3)cc2)c1 | -10.0% | -3.0% | -46.5%[inhibitor] | x | -2.8 | 5.3% | 0.5
O=C(NCCc1cccs1)C1CC(c2ccc([N+](=O)[O-])cc2)=NO1 (centres undefined) | 5.9% | 1.2% | x | -3.0 | -22.2 | -6.7% | -18.3
O=c1[nH]c(C2CCCN(S(=O)(=O)c3ccc(F)cc3)C2)nc2c1nnn2Cc1ccccc1 (centres undefined) | -9.1% | 1.3% | 3.3% | -2.6 | -3.3 | -20.0% | 1.7
COc1ccc(NC(=O)c2ccc(S(=O)(=O)N(C)C)cc2)cc1 | 2.4% | x | -2.4% | -3.0 | 4.1 | -7.0% | 2.4
O=C(NCC1CCCO1)C1CC(c2ccccc2Cl)=NO1 (centres undefined) | 14.8% | -0.5% | -1.6% | 4.4 | -7.8 | 10.1% | 7.1
NS(=O)(=O)c1ccc(CCNC2CC(=O)N(Cc3ccccc3)C2=O)cc1 (centres undefined) | -0.7% | 1.0% | -27.1% | 0.7 | -5.1 | -3.6% | -2.0
COc1ccccc1C(=O)Nc1ccc(OCC(=O)N2CCCCC2C)cc1 (centres undefined) | 0.9% | 1.0% | 26.1% | x | 11.1 | x | 1.4
O=C(N/N=C/c1ccc2c(c1)OCO2)c1ccc2c(c1)OCO2 | -12.4% | 3.4% | 1.0% | -2.3 | 1.5 | 5.4% | 32.9
CC(C)C[C@@H](C(=O)NC1CC1)N1C(=O)N2CCc3c([nH]c4ccccc34)[C@@]2(C)C1=O | 2.2% | -3.9% | x | 0.6 | -2.6 | 10.0% | x
COc1ccc2sc(-c3ccc(N(C)C)cc3)c(-c3cnc(OC)nc3)c2c1 | -28.8% | 3.5% | x | x | -45.5 | x | 4.6
Nc1ccn(CCCN2CCN(Cc3cccc4ccccc34)CC2)c(=O)n1 | x | 1.6% | 2.1% | x | x | x | -5.2
Cc1occc1C(=O)NCCc1ccc(Cl)cc1 | -1.1% | -4.4% | u | 3.6 | -17.1 | -22.6% | -10.6
CC1CCN(S(=O)(=O)c2ccc(C(=O)N3CCCCC3C(=O)O)cc2)CC1 (centres undefined) | 3.4% | -2.1% | 8.4% | x | -9.0 | x | 1.1
CCCn1nc2cc(C(=O)NCCCCc3ccccc3)ccc2c1OCC | -8.9% | 4.7% | x | -0.8 | 9.5 | -0.9% | 19.1
O=C(Cc1csc(Nc2nc(=S)[nH]c3ccccc23)n1)NCCCN1CCN(c2ccccc2F)CC1 | -7.2% | x | 7.8%[15.4 µM] | 5.7 | -13.4 | -4.6% | -9.2
CC(OC(=O)c1ccc(-n2cnnn2)cc1)C(=O)Nc1ccccc1F (centres undefined) | -2.9% | -1.3% | -27.1% | x | 5.2 | x | 2.3
O=C1CCN(Cc2ccccc2)C(=O)N1 | 5.2% | x | -0.8% | x | x | x | -0.5
Cc1ccccc1NS(=O)(=O)c1ccc(C(=O)N(C)CC(=O)Nc2ccccc2Br)cc1 | -21.5% | -2.8% | -13.5% | x | x | x | 2.0
N#Cc1cccc(NC(=O)c2nc(-c3ccccc3)n(-c3ccccc3)n2)c1 | -16.7% | -12.8% | -5.4% | 1.1 | -10.9 | 7.0% | -3.8
CCOC(=O)C(C(=O)c1ccccc1)C(c1ccccc1)c1nccc2ccccc12 (centres undefined) | x | 0.2% | u | x | x | x | 13.2
CCOc1ccc(OCC(=O)OCC(=O)Nc2ccc3[nH]c(=O)[nH]c3c2)cc1 | 15.3% | -1.4% | -49.2%[inhibitor] | x | -6.6 | x | 3.4

Additional compounds:
SMILES | gsp antagonist | ClpP mod | gsp ag | Menin MLL FP FL | TRPV1 potentiator | Sfp inh | TRPML1 inh
CN(C(=O)Cn1nc(Cl)ccc1=O)C1CCCN(Cc2ccccc2F)C1 (centres undefined) | 6.9% | -1.1% | 28.1% | x | 0.4 | 0.7% | 13.7
O=C(Nc1c(-c2ccc(F)cc2)nc2ccccn12)c1ccc(F)cc1 | 7.1% | 0.9% | -20.5% | 4.6 | -3.0 | 7.8% | -13.4
Cc1cc(C(=O)Nc2ccccc2C(=O)O)ccc1NC(=O)COc1ccccc1Cl | 1.4% | 0.8% | -1.6%[15.4 µM] | x | 0.8 | 6.1% | 30.0
COc1ccc(OC)c(NC(=O)CCN2CCN(C)CC2)c1 | 8.5% | 3.2% | -19.3% | 4.9 | 0.8 | -13.3% | -17.4
CCCn1c(SCC(=O)Nc2cccc(S(=O)(=O)N(C)C)c2)nc2ccccc2c1=O | -14.8% | -2.4% | 5.6% | 2.6 | 3.8 | 1.9% | 29.8
COCCCN1CCN(C2Cc3ccccc3Sc3ccc(Cl)cc32)CC1 (centres undefined) | 13.2% | 4.0% | -2.0% | 1.3 | -9.9 | -8.3% | 9.6
Cc1oc2c(cc(NS(=O)(=O)c3ccc4c5c(cccc35)C(=O)N4)c3ccccc32)c1C(=O)OC(C)C | -2.7% | 4.0% | u | 7.0 | 6.9 | -27.0% | 16.1
O=[N+]([O-])c1ccc(C(=S)N2CCN(Cc3ccccc3)CC2)cc1 | 4.3% | -1.2% | 0.0% | 6.1 | -4.4 | -17.4% | -6.7
FC(F)(F)c1cnc(-c2cnc(-c3cccnc3)nc2)c(Cl)c1 | 4.8% | x | -2.5%[15.4 µM] | -0.5 | -2.2 | 3.1% | 6.0
CCOC(=O)C1CCN(C(=O)Cn2cc(C(=O)OC)c3ccccc32)CC1 | -0.7% | x | 5.0%[15.4 µM] | -5.4 | 5.7 | 15.4% | -15.0
